Source: PubChem (several laboratories)
eIF4H inh: inhibitors of RNA binding by human eIF4H; eIF4H fluorescence polarization binding assay; Q15056; 290,000 compounds, 0.94% hits; inhibition, % at 35 µM;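 active = 50% or more with normal probe brightness, or confirmed in later tests; inconclusive = above 50% with abnormal brightness, or retests that disagree; inactive = below 50% or failed in later tests; about a fifth of its hits are not listed in these tables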;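 note: calls also rest on retests at 20 µM and on dose response follow-up; 0% = protein and probe with vehicle and 100% = probe without protein; strong numbers were not always called active; many hits fall short of the cut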
CSC inhib: blocks cancer stem cells | cancer stem cell-like cells viability, luminescence | 300,000 compounds, 1.1% hits | inhibition, % at 7.5 µM;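 active = mean at 75% or more and at least half the replicates too; inconclusive = mean and replicates disagree; tested in HMLE shEcad cells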;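 note: 0% = median of negative and 100% = median of positive control wells; the first replicate is given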
HIV Env fusion: inhibitors of HIV Env-mediated cell fusion | HeLa-JRFL Env/CEM21 cell fusion, luciferase | inhibition, % at 12.3 µM | 360,000 compounds, 1.1% hits | AID 651610;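 active = mean replicate inhibition score of at least 50 and every replicate individually at or above 50; inconclusive = only one of the two criteria met; inactive = mean below 50 and not all replicates reaching 50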;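 note: 0% = plate neutral controls and 100% = maraviroc near 300 nM; one replicate is shown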
MT1-MMP act inh: blocks activation of human MT1-MMP; P50281; HT1080 RFP-PRO-GFP cells, GFP/RFP ratio fluorescence, overnight; percent of plate control window, DMSO zero; GFP/RFP ratio change, % at 20 µM; 360,000 compounds, 0.061% hits;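 active = GFP/RFP ratio change of at least 30% with cell ATP level not reduced by more than half and red fluorescence within 50% of control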; note: strong numbers were not always called active
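Material: RFP-PRO-GFP reporter HT1080 cells. Dosing: single-point 20 µM compound, 1% DMSO. Controls: DMSO and RFP-L50D-GFP cell wells. Timing: cells overnight before dosing, compound overnight, 37 °C, 5% CO2. Measure: GFP/RFP fluorescence ratio.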
UUG fidelity: yeast start codon fidelity modulation | AID 602363 | S. cerevisiae UUG-firefly luciferase reporter, luminescence/redox ratio | activity score, % at 18.7 µM | 350,000 compounds, 0.13% hits;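 active = replicate mean at a twofold rise or more, about +100% in these data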;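 note: firefly luciferase made from a UUG start codon reports start codon fidelity; reporter light over untreated wells divided by growth signal over untreated wells; some hits fall short of that in this replicate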
PABP polyA inh: blocks human PABP binding to poly(A) RNA | P11940 | fluorescence polarization | inhibition, % at 35 µM | 290,000 compounds, 1% hits | AID 2014;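 active = 50% or more with normal probe brightness, or confirmed in later tests; inconclusive = above 50% with abnormal brightness, or retests that disagree; inactive = below 50% or failed in later tests; about a fifth of its hits are not listed in these tables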;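 note: calls also rest on retests at 20 µM and on dose response follow-up; controls were probe without protein and protein plus probe with vehicle; some compounds called inactive have numbers as strong as hits; many hits fall short of the cut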
Target sequence (P11940 whole entry, looked up): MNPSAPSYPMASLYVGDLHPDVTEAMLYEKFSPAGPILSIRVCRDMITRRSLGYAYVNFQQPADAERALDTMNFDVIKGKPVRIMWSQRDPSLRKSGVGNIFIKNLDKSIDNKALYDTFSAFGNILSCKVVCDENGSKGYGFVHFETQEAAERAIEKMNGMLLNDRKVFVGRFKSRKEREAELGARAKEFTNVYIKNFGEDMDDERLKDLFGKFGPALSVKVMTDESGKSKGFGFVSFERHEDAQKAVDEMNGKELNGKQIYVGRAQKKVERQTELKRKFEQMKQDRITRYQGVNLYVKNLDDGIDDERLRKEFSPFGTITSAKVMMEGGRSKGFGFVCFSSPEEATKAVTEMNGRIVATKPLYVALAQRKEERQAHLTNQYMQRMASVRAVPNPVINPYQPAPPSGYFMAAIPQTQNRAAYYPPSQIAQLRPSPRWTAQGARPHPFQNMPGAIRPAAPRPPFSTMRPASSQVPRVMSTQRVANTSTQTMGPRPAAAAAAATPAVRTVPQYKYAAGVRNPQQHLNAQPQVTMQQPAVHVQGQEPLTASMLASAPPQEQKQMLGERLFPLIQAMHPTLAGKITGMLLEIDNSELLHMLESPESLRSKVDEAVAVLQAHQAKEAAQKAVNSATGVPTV
Rce1 inh: yeast Ras-converting enzyme inhibition. yeast membranes, quenched prenylated peptide cleavage fluorescence. Q03530. calls only. 290,000 compounds, 0.27% hits;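 active = fall in fluorescence gain of 50% or more versus controls, with final raw signal at or below 3038400; inconclusive = same 50% fall but final raw signal above 3038400; inactive = fall in fluorescence gain under 50%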;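 note: plate controls were neutral control wells for no effect and wells lacking membranes for full effect; tested at 10 µM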
Target sequence (Q03530 whole entry, looked up): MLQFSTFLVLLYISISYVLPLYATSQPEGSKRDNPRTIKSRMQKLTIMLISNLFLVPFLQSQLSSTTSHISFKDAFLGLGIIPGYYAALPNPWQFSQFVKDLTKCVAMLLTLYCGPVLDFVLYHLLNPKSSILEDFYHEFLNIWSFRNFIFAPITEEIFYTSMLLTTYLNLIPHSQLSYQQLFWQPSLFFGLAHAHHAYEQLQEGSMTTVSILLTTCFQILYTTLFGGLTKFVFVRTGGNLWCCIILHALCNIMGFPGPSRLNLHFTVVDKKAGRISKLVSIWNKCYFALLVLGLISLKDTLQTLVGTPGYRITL
MT1-MMP act inh RFP: recorded beside MT1-MMP act inh, whose call it bears; RFP signal change, %; measured here: RFP expression control read;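 0 = vehicle wells; hits needed this value within 50% of zero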
* marks the source's active call; other numbers are inactive results; i = inactive; u = inconclusive; x = no result given.

Second line of a record – eIF4H inh	CSC inhib	HIV Env fusion	MT1-MMP act inh	MT1-MMP act inh RFP	UUG fidelity	PABP polyA inh	Rce1 inh
1: CC(NC(=O)Cn1nc(-c2ccccc2)c2ccccc2c1=O)c1ccccc1 (centres undefined)
→ -20	-7	-61	4	1	-18	8	i
2: COc1ccc(S(=O)(=O)N(c2onc(C)c2Cl)S(=O)(=O)c2ccc(OC)c(OC)c2)cc1OC
→ -4	-5	-44	1	4	2	0	i
3: CC(=O)C1=C(C)NC(=S)NC1c1cc([N+](=O)[O-])ccc1O (centres undefined)
→ -6	-10	6	2	3	-2	0	i
4: COc1ccccc1CNC(=O)C(=O)NCC1OCCCN1S(=O)(=O)c1ccc(F)cc1C (centres undefined)
→ -5	3	10	1	-3	-3	-5	i
5: CC(C)OCCCNc1nc2c(-c3ccccc3)nnn2c2ccccc12
→ 6	-8	x	x	x	x	4	i
6: O=C(Cc1c[nH]c2ccccc12)N1CCN(c2ccccc2)CC1
→ 3	-9	1	0	0	x	-6	i
7: OCC1(CCCc2ccccc2)CCN(C2CCSCC2)CC1
→ 10	41	-11	1	-2	x	-7	i
8: COc1cccc(C(=O)Nc2nnc(S(=O)(=O)N3CCOCC3)s2)c1
→ -16	-8	-1	-1	-2	-9	-7	i
9: CCC(=O)Nc1ccc(C(=O)NCc2ccccn2)cc1
→ 3	-6	-39	6	-1	x	13	i
10: Cc1c(C(=O)N2CC(C)OC(C)C2)sc2nc(-c3ccccc3)cn12 (centres undefined)
→ -6	-3	-10	x	x	x	-2	i
11: Cc1ccc(NC(=O)COc2ccccc2C(=O)Nc2ccccc2)cc1Cl
→ -16	9	x	3	1	x	4	i
12: CC1CCCCN1S(=O)(=O)c1ccc(S(=O)(=O)NCCc2ccncc2)cc1 (centres undefined)
→ -4	-2	x	3	-9	x	5	i
13: Cc1cc2ccccc2nc1SCC(=O)NC1CCCCC1
→ 5	-6	0	-3	-1	x	3	i
14: COCCNC(=O)c1cc2c(c(-c3cccc(C#Cc4ccc(OC)c(OC)c4)c3)n1)[C@@H](CCO)N(S(=O)C(C)(C)C)C2 (some centres undefined)
→ x	x	7	4	7	10	x	x
15: O=C(CN(c1ccc(F)cc1)S(=O)(=O)c1ccc2c(c1)OCCO2)NCc1ccccn1
→ -4	-8	-9	-6	2	-11	-4	i

Remaining list, next part:
Second line of a record – eIF4H inh	CSC inhib	HIV Env fusion	MT1-MMP act inh	MT1-MMP act inh RFP	UUG fidelity	PABP polyA inh	Rce1 inh
16: COc1ccc(NC(=O)c2cc(-c3cc(F)ccc3OC)n[nH]2)cc1OC
→ x	x	-11	-1	0	-9	x	x
17: O=C1COc2ccc(S(=O)(=O)CCC(=O)N3CCN(c4cccc(Cl)c4)CC3)cc2N1
→ 0	-8	5	4	-7	0	12	i
18: COc1cccc(-c2c(C(=O)O)cc(O)c3ccc(OC)cc23)c1
→ x	x	-5	3	1	0	x	x
19: CCc1ccccc1N(CC)C(=O)c1cn(C)c(=O)c2cc(OC)c(OC)cc12
→ 4	-2	-11	-1	-2	4	6	i
20: CC(C)N1CCN(Cc2ccc(C#CCCO)cc2)CC1CCO (centres undefined)
→ 2	0	17	-4	4	x	-7	i
21: CCS(=O)(=O)n1nc(-c2ccc(Cl)cc2)nc1SC
→ -5	-8	-105	3	-3	-21	-6	i
22: CCCCOCCCNS(=O)(=O)c1ccccc1
→ 5	-2	x	3	2	10	0	i
23: CCOc1cc(S(=O)(=O)N(CC)CC)ccc1F
→ -1	-8	3	2	3	-16	10	i
24: COc1cc(F)ccc1S(=O)(=O)N1CCN(Cc2ccccc2)CC1
→ -5	-18	-3	1	0	3	-10	i
25: NC(=O)c1ccccc1N/C=C/C(=O)c1cccs1
→ 6	7	x	-19	2	-19	4	i
26: Cc1nc(C)c(C(=O)C2=C(O)C(=O)N(CCN(C)C)C2c2cccs2)s1 (centres undefined)
→ -13	-4	x	1	7	-11	-7	i
27: CCO[C@@H]1OC(C(=O)NC2CC2)=C[C@H](c2ccc(Br)cc2)[C@H]1CCCO
→ -11	-12	1	1	-1	-27	-8	i
28: O=C1CCCc2nc(N3CCN(C(=O)c4ccco4)CC3)ncc21
→ 0	-7	-33	0	2	-5	0	i
29: CCCC1S/C(=N/N=C/c2ccc(OC)cc2)N(Cc2ccccc2)C1=O (centres undefined)
→ 4	-11	x	-1	-5	-5	-15	i
30: CCOC(=O)C1=C(O)/C(=C/c2ccc(-c3ccccc3C(=O)O)o2)SC1=Nc1ccc(C)cc1
→ x	x	-9	-103	18	-22	x	x

Additional records.
Second line of a record – eIF4H inh	CSC inhib	HIV Env fusion	MT1-MMP act inh	MT1-MMP act inh RFP	UUG fidelity	PABP polyA inh	Rce1 inh
31: COc1cc2c3c(c1)c(C1=NC(=S)NC1=O)c(O)n3C(C)(C)C=C2C
→ 11	9	-5	-1	-2	-17	9	i
32: Cc1ccc(C(=O)Cn2c(-c3ccccc3)noc2=O)cc1
→ -7	-6	-14	-9	-5	0	1	x
33: CCCc1nc(SCC(=O)N2CCc3ccccc32)c2c(C)c(C)sc2n1
→ -1	-6	x	x	x	x	1	i
34: COC(=O)c1ccccc1NC(=O)C1CCN(C(=O)N2CCOc3ccccc32)CC1
→ -2	1	2	1	-1	6	5	i
35: Cc1cc(NC(=O)CN2CCN(S(=O)(=O)c3ccc4ccccc4c3)CC2)no1
→ -4	13	x	-4	-1	x	-7	i
36: O=C(CN(C(=O)CCC(=O)Nc1nccs1)c1ccc2c(c1)OCO2)NCc1ccccc1
→ -3	x	-6	1	1	-8	2	i
37: COc1ccc(C(c2nnnn2CCc2ccccc2)N2CCN(C3CCCC3)CC2)cc1OC (centres undefined)
→ -13	13	-62	-7	1	-14	16	i
38: COc1cc(C(=O)OCC(=O)Nc2ccccc2)cc2c1OCCO2
→ x	x	5	-5	7	-7	x	x
39: CC(=O)c1cc2c(cc1NC(=O)CSc1nc3ccc(C)cc3[nH]1)OCO2
→ -2	x	5	-1	-4	-16	-6	i
40: Cc1cc(C)c2c(NC(=S)NC(=O)c3ccccc3)n[nH]c2n1
→ -1	-22	1	0	-5	-29	u	i
41: O=C1C(C=NCC2CCCO2)=C(O)c2ccccc21 (centres undefined)
→ 2	0	-140	-2	5	-15	-1	i
42: COc1ccc(CCNS(=O)(=O)c2cn(C)c(=O)n(C)c2=O)cc1
→ 8	-23	-81	5	6	-6	11	i
43: O=C(O)c1cnn(-c2nc(-c3ccc(Cl)cc3)cs2)c1C(F)(F)F
→ 6	-13	-21	-1	1	-20	1	i
44: Cc1ccc(CC(=O)Nc2cccc(C(=O)Nc3c(C)n(C)n(-c4ccccc4)c3=O)c2)cc1C
→ x	x	8	9	-6	-8	x	x
45: Cn1c(C(=O)NCCN2CCCCCC2)cc2c(=O)n(C)c3ccccc3c21
→ 28	-14	-44	7	8	-8	10	i

(next part)
Second line of a record – eIF4H inh	CSC inhib	HIV Env fusion	MT1-MMP act inh	MT1-MMP act inh RFP	UUG fidelity	PABP polyA inh	Rce1 inh
46: CCCCCCN1C[C@@H](n2cc(C3CC3)nn2)[C@H](O)C[C@@H]1c1ccc(C)cc1
→ x	x	-52	-5	-13	-3	x	x
47: CCCC12CN3CC(C)(CN(C1)C3c1ccc(OC(C)C)cc1)C2=O (centres undefined)
→ 0	-8	4	-4	1	-8	1	i
48: Cn1c(=O)c2c(nc(SCc3ccccc3)n2Cc2ccc(Cl)cc2)n(C)c1=O
→ -3	-15	23	-12	-12	-28	-11	i
49: COc1cc(/C=C/C(=O)N2CCN(c3n[nH]c(=O)[nH]c3=O)CC2)cc(OC)c1OC
→ -5	-15	-3	4	5	-2	-2	i
50: C=C(C)c1sc(-c2ccc(Cl)cc2)nc1C
→ x	-5	-89	-1	-2	-26	x	i
51: Cc1c(C(=O)N2CCCC2)sc(NC(=O)c2ccc(Cl)cc2)c1C#N
→ -6	24	x	-3	-6	x	-4	i
52: Cc1cc(C)cc(NC(=O)Cc2ccc(S(=O)(=O)N3CCCC3)s2)c1
→ x	-12	13	-2	-2	-16	x	x
53: N#CC1C(=O)NC(c2ccccc2)=CC1c1ccccc1 (centres undefined)
→ x	x	-2	0	-2	4	x	x
54: CCC(C(=O)OC)n1c(-c2ccccc2)nc2ccccc2c1=O (centres undefined)
→ 2	x	1	-3	0	x	-10	i
55: Cc1ccccc1CS(=O)(=O)Cc1ccc(C(=O)NC2CCCC2)o1
→ x	-14	-3	0	0	-3	x	i
56: CC12CCC(c3c1nc1ccccc1[n+]3[O-])C2(C)C (centres undefined)
→ 2	21	8	3	3	x	10	i
57: CCc1ccc(OCC(=O)OC(C)C(=O)NC2CC2)cc1 (centres undefined)
→ -5	11	5	-1	2	-23	0	i
58: COC(=O)CS(=O)(=O)c1cccc2cccnc12
→ 4	-20	3	-1	3	x	9	i
59: CC(C)(C)c1ccc(C(=O)C2CCCN(C(=O)CCn3cncn3)C2)cc1 (centres undefined)
→ -1	2	3	2	-6	-22	-4	i
60: O=C(CSc1nncn1-c1ccccc1)Nc1ccccc1F
→ 5	10	5	1	3	x	10	i

Continued.
Second line of a record – eIF4H inh	CSC inhib	HIV Env fusion	MT1-MMP act inh	MT1-MMP act inh RFP	UUG fidelity	PABP polyA inh	Rce1 inh
61: CCN(CC)C(=O)CCCC(=O)N(CC)CC
→ 1	2	4	0	4	x	-4	i
62: S=C(Nc1ccc2c(c1)OCO2)N1CCN(Cc2ccco2)CC1
→ 1	-1	1	-5	-9	x	0	i
63: Cc1ccc(-n2c(N)c(C#N)c(-c3ccc(Cl)cc3)c(C#N)c2=O)cc1
→ -8	-8	x	2	-2	-15	6	i
64: Cn1c(=O)n(C)c2cc(S(=O)(=O)Nc3ccccc3)ccc21
→ -10	-4	0	11	2	x	7	i
65: O=[N+]([O-])/C(N=Nc1ccccc1)=N\Nc1ccccc1
→ 1	20	-12	6	6	x	1	i
66: COc1ccccc1N1CC(C(=O)Nc2ccc3c(c2)OCO3)CC1=O (centres undefined)
→ 3	3	15	2	5	x	12	i
67: CC(C)C[C@H]1CNC(=S)N1CC1CCN(CCC23CC4CC(CC(C4)C2)C3)CC1
→ x	x	9	-2	-9	-11	x	x
68: c1ccc(C(c2nnnn2C2CCCC2)N2CCN(c3ccccc3)CC2)cc1 (centres undefined)
→ -3	1	x	4	-3	-1	-8	i
69: COc1cc(OC)cc(C(=O)Nc2ccc3c(c2)COC3=O)c1
→ -1	-24	21	-2	-4	-18	0	i
70: CCSc1ncnc2c1oc1ccccc12
→ 10	-1	2	4	3	-12	17	i
71: O=C(OCCN1CCCCC1)c1cccc(F)c1
→ 4	-15	2	1	4	-3	-5	i
72: COc1ccc(OC(=O)CCN2C(=O)C3C4C=CC(C4)C3C2=O)cc1 (centres undefined)
→ -4	6	5	5	3	x	-10	i
73: CCCC(=O)N1CCCC1(C)C(=O)NCc1c(F)ccc(C)c1F (centres undefined)
→ x	x	-6	1	5	-10	x	x
